Bioassay records (PubChem BioAssay)
Vaccinia pol inh: vaccinia E9 polymerase processive synthesis inhibitors, primary screen, biochemical, absorbance. in vitro processive DNA synthesis, absorbance read-out; stronger effect = lower value; some inactives read as strong as hits. normalized absorbance, % (test concentration not listed). 46,000 compounds, 0.94% hits;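 active = replicate mean up to 90% and picked by the depositor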;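 also: 100% = median of the test wells of a plate; 100 nL library stock went into each well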
Numbers without * were called inactive.

SMILES	Vaccinia pol inh
CCOC(=O)c1c(-c2ccccc2)csc1NC(=O)CCCC(=O)O	98.5
O=C(COC(=O)c1cnccn1)c1ccc2c(c1)CCCC2	101.4
O=C(Cc1coc(-c2ccc(F)cc2)n1)Nc1ccccc1	99.1
CC(C)(C)C(=O)NCCc1nc2ccccc2[nH]1	98.6
CCOC(=O)c1cc(-c2ccccc2)n(CCNC(=O)OC(C)(C)C)c1C	100.6
CCCOc1ccc(C(=O)Nc2ccc(NC(=O)c3cccs3)cc2)cc1	100.7
C=CCNc1oc(-c2ccccc2)nc1C#N	98.9
Cn1c(C(C#N)C(=O)Cc2cccc3ccccc23)nc2ccccc21 (centres undefined)	104.6
S=c1c(Cl)c(Cl)cnn1Cc1ccccc1	99.5
N#Cc1c(N)n(-c2ccccc2)c2nc3ccccc3nc12	107.6
Cc1ccc(OCCn2c(C(O)c3ccccc3)nc3ccccc32)cc1 (centres undefined)	104.0
CC(C)n1c(SCC(=O)Nc2ccccc2Cl)nc2cc(Cl)ccc21	102.4
CCN(CC)C(=S)SC1CC(=O)N(c2ccc(S(=O)(=O)NC(C)=O)cc2)C1=O (centres undefined)	101.0
O=C(NCc1ccccc1)N1CCC(CN2CCCCC2)CC1	103.5
O=C(O)CC1(C(F)(F)F)OCCO1	100.7
CCOC(=O)NC1c2ccccc2Sc2ccc(Cl)cc21 (centres undefined)	99.2
CC(=O)N1C(=S)NC(=O)C1c1ccccc1 (centres undefined)	94.2
CC1=[N+]([O-])C(C)(C)C(c2ccc(C)o2)=[N+]1[O-]	99.9
O=C(NCCN1CCN(c2nccc(C(F)(F)F)n2)CC1)c1ccc(Cl)cc1	92.3
Cc1ccc(S(=O)(=O)N2CCCC2c2cccnc2)cc1 (centres undefined)	95.8
C=CCn1c(=NC(=O)/C=C/c2ccccc2)sc2cc(NC(C)=O)ccc21	90.6
CCN(CC)c1ccc(N2C(=O)/C(=C/c3ccccc3)SC2=S)cc1	101.3
Cc1n[nH]c(C)c1Cc1c(F)cccc1Cl	76.4
Cc1ccc(C)c(COc2ccc(C)nc2NC(=S)NCc2ccccc2)c1	96.9
O=C(CS[n+]1ccccc1)c1ccc(Br)cc1	88.7
O=C(CSc1ccc(Cl)cc1)N1CCc2c([nH]c3ccccc23)C1C(F)(F)F (centres undefined)	100.2
CCN(CC)c1nc(C)nc2sc(C(=O)N3CCCCCC3)c(C)c12	98.7
CCCCc1c2c(nn1-c1ccccc1F)CC(c1ccccc1)CC2=O (centres undefined)	100.4
CCC(C)NC(=O)c1ccc(Sc2ccc(Cl)cc2)c(NC(C)=O)c1 (centres undefined)	90.7
CNC(=S)NC1CCS(=O)(=O)C1 (centres undefined)	100.2
CCOC(=O)Cn1c(-c2c(Cl)cccc2Cl)noc1=O	98.2
CCC1Sc2ccccc2NC1=O (centres undefined)	109.4
O=C(O)CNC(=O)CSc1ccccn1	117.0
COc1ccc(NC(=O)CC2(Cc3ccccc3)CCOC(C)(C)C2)cc1 (centres undefined)	93.0
N/C(=N\S(=O)(=O)c1ccc(Cl)cc1)c1ccccc1	92.7
CC(C)CC1C(=O)N2CCC[C@H]2C2(O)O[C@](NC(=O)C3C=C4c5cccc6[nH]c(Br)c(c56)C[C@H]4N(C)C3)(C(C)C)C(=O)N12 (some centres undefined)	99.4
CSC1=NCCN1C(=O)c1ccccc1	102.1
c1ccc(Sc2cnc3ccccc3n2)cc1	105.0
Cc1cc(-c2ccc(NC(=O)C3CC3)c(C)c2)ccc1NC(=O)C1CC1	100.0
N#C/C(=C\C1CC2C=CC1C2)c1nc2ccccc2[nH]1 (centres undefined)	104.9
CCOC(=O)N1CCC(c2nc3ccccc3[nH]2)CC1	103.4
O=C(NCCCn1ccnc1)c1ccccc1NS(=O)(=O)c1ccc(Cl)cc1	88.9
CC(C)(C)c1ccccc1OCC(=O)Nc1cccc2ccccc12	99.7
CN(Cc1ccccc1)C(=O)COC(=O)c1c2c(nc3ccccc13)CCC2	101.8
Cn1c(=O)oc2cc(S(=O)(=O)NCCC(=O)Nc3cccc(F)c3)ccc21	96.6
CCN(CC)C(=O)c1ccc[n+](CC(N)=O)c1	99.6
CCN(CC)CCNc1nc2c(c(=O)n(C)c(=O)n2C)n1C(C)c1ccccc1 (centres undefined)	100.0
Cc1ccc(C(C#N)c2ccc(Cl)nn2)cc1 (centres undefined)	93.8
O=C(NCC1(c2ccccc2)CCCC1)c1noc2c1COc1ccccc1-2	107.1
CCCSc1nc2c([nH]c3ccccc32)c(=O)n1-c1ccccc1	96.6
CCN1CCOC(CC(=O)Nc2cccc(OC)c2)C1=O (centres undefined)	104.8
CCOc1ccc(-c2cc3[nH]c(=O)n(-c4ccccc4C(F)(F)F)c(=O)c3s2)cc1	104.5
CC1=NN(C(=O)Cc2ccccc2)C(O)(c2ccccc2)C1 (centres undefined)	98.7
CC(C)(C)S(=O)(=O)c1ccc(S(=O)(=O)C(C)(C)C)s1	100.5
CCc1cccc(NC(=O)NC(=O)Cn2nnc(C(=O)OC)c2C(=O)OC)c1	103.0
Cc1cc(C(N)=O)c(C)n1-c1ccc(Br)cc1	102.5
CCCCN1CN=C(Nc2nc3ccccc3o2)NC1	98.7
COC(=O)CN(C)c1nnc(N)s1	101.2
O=C(CN1C(=O)/C(=C\c2cccs2)SC1=S)N1CCN(c2ccccc2)CC1	102.7
CCOc1ccc(-c2nc3ccc(-c4nc5ccc(N6CCN(C)CC6)cc5[nH]4)cc3[nH]2)cc1	22.6*
The list goes on:
SMILES	Vaccinia pol inh
O=C(O)CCN1C(=O)C2C3C=CC(C3)C2C1=O (centres undefined)	106.7
Cc1ccc(-n2ncc3c(NCc4cccs4)ncnc32)c(C)c1	79.2
CCN(CC)[P+](NC(=O)c1ccccc1)(c1ccccc1)N(CC)CC	99.6
CC(C(=O)O)N1C(=O)/C(=C\c2ccc(Br)cc2)SC1=S (centres undefined)	91.0
Cc1nc2nc(-c3ccc(Cl)cc3)[nH]n2c(=O)c1C	102.9
On1c(-c2ccc(Cl)cc2Cl)nc2ncccc21	95.8
Cc1ccc(N2C(=O)CC(=O)N(c3ccc(C)cc3C)C2=O)c(C)c1	100.5
CC1CC(=O)c2cnc(N3CCc4ccccc43)nc2C1 (centres undefined)	100.3
C[N+]1(CC2COC(C3CC=CCC3)O2)CCCC1 (centres undefined)	100.0
CC12CN3CC(C)(CN(C1)C3C1C(=O)Nc3ccccc31)C2 (centres undefined)	104.6
O=C(COC(=O)c1cc2ccccc2oc1=O)c1ccc(Br)cc1	101.2
O=C(NCc1ccco1)c1c(NC(=O)C2COc3ccccc3O2)sc2c1CCC2 (centres undefined)	101.1
CCc1ccc(-n2c(=O)c3ccccc3n(CC(=O)C(C)(C)C)c2=O)cc1	104.1
CN(C)C1CCCCC1NS(=O)(=O)c1ccc(Cl)cc1 (centres undefined)	99.4
NC(=S)NCCC[C@H](N)C(=O)O	98.5
CN1C(=O)CN=C(c2ccccc2)c2cc(Cl)ccc21	97.4
O=C1/C(=C/c2ccccc2)COc2ccccc21	122.6
CN(C)S(=O)(=O)c1ccc(C(=O)NC2CCCc3ccccc32)cc1 (centres undefined)	98.9
Cc1cccn2c(=O)c3cc(C(=O)NC4CCSC4=O)sc3nc12 (centres undefined)	99.8
Cc1cc2cc3c(C)cc(=O)oc3c(C)c2o1	99.3
O=C(NC1CCCC1)c1ccccc1OCc1ccccc1	91.5
CCCCn1c(=O)c2ccccc2n2c(=S)sc(-c3ccccc3)c12	100.4
Cc1cccc(CCNC(=O)C2CCN(S(=O)(=O)c3cccc4cccnc34)CC2)c1	103.9
CCSc1nnc(Cn2c(=O)sc3ccccc32)n1C	102.9
O=C(C1CCCCN1S(=O)(=O)c1ccccc1)N1CCCCC1 (centres undefined)	103.0
CNC(=O)c1ccsc1NC(=O)/C=C/c1ccccc1	72.0
Cc1cc(=O)oc2cc(OCc3cccc(F)c3)ccc12	100.1
O=C(O)c1ccc(CSCc2ccccc2)o1	92.4
CCN(CC)Cc1cccc2cccnc12	77.1
CS(=O)c1nc(-c2ccccc2)cc(C(F)(F)F)n1 (centres undefined)	100.2

Reformatted as labelled records: entries from further up.
Structure: Cc1cc2cc3c(C)cc(=O)oc3c(C)c2o1
  Vaccinia pol inh = 99.3
Structure: O=C(NC1CCCC1)c1ccccc1OCc1ccccc1
  Vaccinia pol inh = 91.5

Going on with the list.
SMILES	Vaccinia pol inh
CCCCn1cnc2c(cnn2-c2ccc(F)cc2)c1=O	98.5
Cc1cccc(C)c1Nc1scc(C)[n+]1C	97.5
CCOc1ccc(NC(=S)NC(Cc2ccccc2)c2ccccc2)cc1 (centres undefined)	102.0
OC(CNCCc1ccccc1)c1ccccc1 (centres undefined)	96.9
COC(CNC(=O)c1cc(-c2ccccc2)nc2ccccc12)OC	93.6
CC(C)c1ccc(NC(=O)CSc2nccn2C)cc1	93.9
Cc1c(C(=O)CC#N)c2ccccn2c1CCC#N	94.3
CN1CCCC(OC(=O)c2cncc(Br)c2)C1 (centres undefined)	97.4
Cc1cccc(NC(=S)Nc2ccccn2)c1	93.6
Cc1ccc(-c2nc(C)sc2CC(=O)O)cc1	98.3
Cc1ccc(S(=O)(=O)N2CCN(C(=O)c3ccccc3)C2c2ccccc2)cc1 (centres undefined)	100.0
CCN(CC)c1ccc(/C=N/O)cc1	92.8
CCN(Cc1ccccc1)C(=O)C1CCN(Cc2ccc(OC)cc2)CC1	94.3
CC1CCc2sc(NC(=O)Cc3ccccc3)c(C(N)=O)c2C1 (centres undefined)	89.9
CCOc1ccc(NC(=O)c2sc(C)c(CC(=O)Nc3ccc(Cl)cc3)c2O)cc1	80.4*
c1ccc(C2CCCC(c3ccccc3)S2)cc1 (centres undefined)	100.4
CCN(CC)S(=O)(=O)c1cccc(C(=O)Nc2cccc(F)c2)c1	100.7
CC12CC3(C)CC(C)(C1)CC(C(=O)NCCc1ccc(S(N)(=O)=O)cc1)(C2)C3	79.5
O=C(Oc1ccc2oc3c(c2c1)CCCC3)c1ccco1	90.3
COc1ccccc1CNC(=O)COC(=O)c1cccc2ccccc12	87.8
Nc1cc(C(F)(F)F)ccc1NCc1ccccc1	97.9
CCOC(=O)C1=C(c2ccccc2)Nc2nnnn2C1c1ccc(Br)cc1 (centres undefined)	99.7
O=C(Nc1ccccc1C(=O)O)OCC1c2ccccc2-c2ccccc21	41.1*
CN(Cc1ccccc1)C(=O)c1noc2c1COc1ccccc1-2	91.8
CCOC(=O)c1sc(Nc2ccccc2C(F)(F)F)c(C(=O)OCC)c1N	110.7
O=C(Nc1ccccc1C(F)(F)F)c1cccs1	100.6
CCN1CCCC1CNC(=O)c1ccccc1Cl (centres undefined)	100.5
CCC(=O)Nc1nc2c(C)c(C)ccc2s1	100.4
Cn1c(SCc2ccccc2)nc2ccccc21	91.2
O=C(NCCc1ccccc1)C1CC(=O)N(C2CCCC2)C1 (centres undefined)	102.5
CC(=O)Oc1ccc(-c2ccc(C(=O)O)cc2)cc1	101.4
CSc1cc(-c2ccc(F)cc2)nn1S(=O)(=O)c1ccc(C)cc1	101.8
Cc1cc(NC(=O)COC(=O)c2ccccn2)ccc1Cl	100.0
CCOC(=O)CC1C(=O)NCCN1C(=O)c1ccccc1 (centres undefined)	103.3
O=C(CNc1ccccc1)Nc1ccccc1	101.9
COc1ccc(N2CC(c3ccc(F)cc3)=CC2=O)cc1	101.3
O=C(O)CNC(=O)/C=C/c1cccc(C(F)(F)F)c1	103.3
CSc1ncc(C(=O)O)c(-c2ccccc2)n1	100.3
CCc1nn(CCCC(=O)N(C)Cc2ccccc2)c(=O)c2cc3occc3n12	98.7
O=C(c1ccncc1)c1nccn1-c1ccccn1	105.6
CC(=O)Nc1ccc(Br)c(C(F)(F)F)c1	98.4
N#CCc1nc2ccc(F)cc2c(=O)[nH]1	71.9
COC(=O)C1=C(NC(=O)c2ccco2)CCS1	100.2
CC(=O)N1CC2(NC(=O)c3ccccc3N2)c2ccccc21 (centres undefined)	99.9
CCN(CC)c1ccc(/C=C2/C(=O)NN(c3ccc(C)cc3)C2=O)cc1	100.0
CCC(=O)Nc1cc2c(C)cc(=O)oc2cc1C	100.5
COc1ccc(-c2noc(CSc3nnc(C)n3-c3ccc(Cl)cc3)n2)cc1	86.5
COc1ccnc(N)c1C#N	95.4
COC(=O)C1C(C)=CC(=O)CC1CC(C)C (centres undefined)	102.1
CSc1nc(SCC(=O)C(C)C)nc(N)c1C#N	100.4

Grouped by structure: the compounds so far with a Cl atom
SMILES	Vaccinia pol inh
S=c1c(Cl)c(Cl)cnn1Cc1ccccc1	99.5
CC(C)n1c(SCC(=O)Nc2ccccc2Cl)nc2cc(Cl)ccc21	102.4
CCOC(=O)NC1c2ccccc2Sc2ccc(Cl)cc21 (centres undefined)	99.2
O=C(NCCN1CCN(c2nccc(C(F)(F)F)n2)CC1)c1ccc(Cl)cc1	92.3
Cc1n[nH]c(C)c1Cc1c(F)cccc1Cl	76.4
O=C(CSc1ccc(Cl)cc1)N1CCc2c([nH]c3ccccc23)C1C(F)(F)F (centres undefined)	100.2
CCC(C)NC(=O)c1ccc(Sc2ccc(Cl)cc2)c(NC(C)=O)c1 (centres undefined)	90.7
CCOC(=O)Cn1c(-c2c(Cl)cccc2Cl)noc1=O	98.2
N/C(=N\S(=O)(=O)c1ccc(Cl)cc1)c1ccccc1	92.7
O=C(NCCCn1ccnc1)c1ccccc1NS(=O)(=O)c1ccc(Cl)cc1	88.9
Cc1ccc(C(C#N)c2ccc(Cl)nn2)cc1 (centres undefined)	93.8
Cc1nc2nc(-c3ccc(Cl)cc3)[nH]n2c(=O)c1C	102.9
On1c(-c2ccc(Cl)cc2Cl)nc2ncccc21	95.8
CN(C)C1CCCCC1NS(=O)(=O)c1ccc(Cl)cc1 (centres undefined)	99.4
CN1C(=O)CN=C(c2ccccc2)c2cc(Cl)ccc21	97.4
CCOc1ccc(NC(=O)c2sc(C)c(CC(=O)Nc3ccc(Cl)cc3)c2O)cc1	80.4*
CCN1CCCC1CNC(=O)c1ccccc1Cl (centres undefined)	100.5
Cc1cc(NC(=O)COC(=O)c2ccccn2)ccc1Cl	100.0
COc1ccc(-c2noc(CSc3nnc(C)n3-c3ccc(Cl)cc3)n2)cc1	86.5

This is a subset; rates above refer to the full screens.
